DUX4 inh = blocks DUX4-driven transcriptional activation. 293T-iDUX4 ZSCAN4-Gaussia luciferase reporter, 24 h; hits give low values. activity change, negative = inhibition, % (test concentration not listed). 0.8% of 37,000 active;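 active = -10% or lower and over 25 points stronger than a control reporter; inconclusive = -10% or lower with a smaller gap; inactive = above -10%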;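 also: 0% = median of neutral control wells and -100% = median of positive control wells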
DUX4 inh difference = also measured in DUX4 inh; calls as there; Gaussia minus Italica difference, %; measured here: selective DUX4 reporter inhibition;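 worked out from the two reporters; negative = selective loss of the DUX4 reporter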
DUX4 inh control = further read-out of DUX4 inh, marked with its call; activity change, negative = inhibition, %; measured here: Italica tet-on control reporter;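 0 = neutral control and -100 = positive control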
Starred values were filed as active, the others as inactive; ? = inconclusive; . = not tested or not shown; & = joins results of further samples. These rows are one share of the data, so the mix of outcomes need not match the whole.

The line under a structure holds: DUX4 inh | DUX4 inh difference | DUX4 inh control
O=C(C[C@H]1CC[C@H]2[C@@H](COC[C@H](O)CN2Cc2ccc(F)cc2)O1)NCCc1ccccc1
    0 | 0 | 0.1
C[C@H]1CN([C@@H](C)CO)C(=O)CCCn2cc(nn2)CO[C@H]1CN(C)C(=O)Nc1ccc(C(C)(C)C)cc1
    -1 | -1 | 0.1
C[C@H](CO)N1C[C@H](C)[C@H](CN(C)C(=O)c2ccc3c(c2)OCO3)Oc2ncc(/C=C/c3ccccc3)cc2C1=O
    -3 | 0 | -2.2
O=C(C[C@@H]1CC[C@H](NC(=O)CN2CCOCC2)[C@H](CO)O1)NCCc1ccncc1
    2 | -1 | 2.7
CC(=O)N(C[C@H]1N[C@H](CO)[C@@H]1c1ccc(-c2ccc(F)cc2)cc1)C(C)C
    -1 | 1 | -1.6
COc1cccc(CN2CCCCN3[C@@H](CO)[C@@H](c4ccc(C#Cc5cccnc5)cc4)[C@@H]3C2)c1
    -36* | -30* | -5.8*
COc1ccccc1-c1ccccc1[C@H]1[C@@H](C#N)N(C(=O)CN(C)C)[C@H]1CO
    19 | 12 | 7.0
CCCC(=O)Nc1ccc2c(c1)C(=O)N(C)[C@@H]1CC[C@H](CC(=O)NCC(F)(F)F)O[C@@H]1CO2
    4 | 0 | 3.5
C[C@H]1CC(=O)NCC/C=C\C[C@@H](c2ccc3c(c2)OCO3)NC1=O
    8 | 4 | 4.7
C[C@@H](NC(=O)C[C@@H]1C[C@@H]2c3cc(NC(=O)Nc4ccccc4F)ccc3O[C@@H]2[C@H](CO)O1)c1ccccc1
    2 | 5 | -3.5
COC(=O)C[C@H]1CC[C@H]2[C@@H](COC[C@H](O)CN2C(=O)Nc2ccccc2OC)O1
    3 | -1 | 3.9
C[C@@H]1C/C=C\C[C@@H](c2ccc3c(c2)OCO3)NC(=O)[C@@H](c2ccccc2)CC(=O)N1
    3 | 2 | 1.2
COc1ccc(C#Cc2ccc3c(c2)O[C@@H](CN(C)S(=O)(=O)c2ccccc2F)[C@@H](C)CN([C@H](C)CO)S3(=O)=O)cc1
    1 | -1 | 1.5
O=C(C[C@H]1CC[C@@H]2[C@H](COC[C@@H](O)CN2C(=O)Nc2ccc(Cl)c(Cl)c2)O1)NCc1ccccc1
    ? | . | .
O=S(=O)(c1ccccc1)N1CC2(C1)[C@@H](c1ccccc1)[C@@H](CO)N2CCC(F)(F)F
    ? | . | .

Grouped by structure, the compounds so far containing a halogen (seven)
The line under a structure holds: DUX4 inh | DUX4 inh difference | DUX4 inh control
O=C(C[C@H]1CC[C@H]2[C@@H](COC[C@H](O)CN2Cc2ccc(F)cc2)O1)NCCc1ccccc1
    0 | 0 | 0.1
CC(=O)N(C[C@H]1N[C@H](CO)[C@@H]1c1ccc(-c2ccc(F)cc2)cc1)C(C)C
    -1 | 1 | -1.6
CCCC(=O)Nc1ccc2c(c1)C(=O)N(C)[C@@H]1CC[C@H](CC(=O)NCC(F)(F)F)O[C@@H]1CO2
    4 | 0 | 3.5
C[C@@H](NC(=O)C[C@@H]1C[C@@H]2c3cc(NC(=O)Nc4ccccc4F)ccc3O[C@@H]2[C@H](CO)O1)c1ccccc1
    2 | 5 | -3.5
COc1ccc(C#Cc2ccc3c(c2)O[C@@H](CN(C)S(=O)(=O)c2ccccc2F)[C@@H](C)CN([C@H](C)CO)S3(=O)=O)cc1
    1 | -1 | 1.5
O=C(C[C@H]1CC[C@@H]2[C@H](COC[C@@H](O)CN2C(=O)Nc2ccc(Cl)c(Cl)c2)O1)NCc1ccccc1
    ? | . | .
O=S(=O)(c1ccccc1)N1CC2(C1)[C@@H](c1ccccc1)[C@@H](CO)N2CCC(F)(F)F
    ? | . | .

Additional structures follow.
The line under a structure holds: DUX4 inh | DUX4 inh difference | DUX4 inh control
O=C(c1cccc(F)c1)N1CCCCN2[C@H](CO)[C@H](c3ccc(/C=C/c4ccccc4)cc3)[C@H]2C1
    ? | . | .
CCS(=O)(=O)N1CC2(C1)CN(S(=O)(=O)c1cn(C)cn1)[C@@H](CO)c1[nH]c3cc(OC)ccc3c12
    12 | 12 | 0.6
COc1ccc([C@H]2CC=CC[C@H](C)Oc3ccccc3C(=O)N(C)[C@H](C)C(=O)N2)c(OC)c1 (mixture of isomers)
    -3 | -5 | 2.1
C[C@H](CO)N1C[C@H](C)[C@H](CN(C)Cc2ccncc2)OCc2ccccc2-c2ccccc2C1=O
    1 | -5 | 5.8
COc1ccc(-c2ccc([C@@H]3[C@@H](CO)N(C(=O)c4cccc(F)c4)[C@H]3C#N)cc2)cc1
    1 | 1 | 0.6
CC(C)OC(=O)N(C)C[C@H]1OCc2ccccc2-c2ccccc2C(=O)N([C@H](C)CO)C[C@H]1C
    13 | -2 | 15
O=C(N[C@@H]1CC[C@H](CC(=O)N2CCc3ccccc3C2)O[C@H]1CO)C1CCOCC1
    -2 | -1 | -1.4
C[C@@H]1CN([C@@H](C)CO)C(=O)c2cc(-c3ccncc3)cnc2O[C@@H]1CN(C)C(=O)CN1CCOCC1
    -1 | 1 | -2.2
COc1ccccc1CN1C[C@@H]2N[C@H](C1)C2c1ccc(-c2ccc(C#N)cc2)cc1 (some centres not stated)
    ? | . | .
CC(C)(C)S(=O)N1Cc2cc(C(=O)O)nc(-c3cccc(C#CCC4CCCC4)c3)c2[C@H]1CCO (some centres not stated)
    -9 | -4 | -4.2
Cc1ccc(S(=O)(=O)N2CC[C@@H]3[C@@H](CO)N(C)c4ccc(-c5cccc(C#N)c5)cc4[C@@H]32)cc1
    ? | . | .
COc1ccc(C#Cc2ccc([C@@H]3[C@H]4CN(C(=O)NC(C)C)CC(=O)N4[C@H]3CO)cc2)cc1
    ? | . | .
O=C(C[C@H]1C[C@H]2c3cc(NS(=O)(=O)c4ccc(F)cc4)ccc3O[C@H]2[C@@H](CO)O1)NCc1cccc(F)c1
    -7 | 0 | -7.0
Cc1ccc(S(=O)(=O)N(C)C[C@@H]2OCc3ccccc3-c3c(n(C)c4ccccc34)C(=O)N([C@H](C)CO)C[C@@H]2C)cc1
    ? | . | .
COc1ccc2c3c(n(C)c2c1)[C@H](CO)N(C(=O)CC1CC1)CC31CN(C(=O)C2CC2)C1
    5 | 0 | 4.6
O=C(Nc1cccc(F)c1)N1CCCCN2[C@H](CO)[C@H](c3ccc(C#Cc4cccnc4)cc3)[C@@H]2C1
    ? | . | .
C/C=C/c1ccc2c(c1)O[C@@H](CN(C)C(=O)C1CCCCC1)[C@H](C)CN([C@H](C)CO)S2(=O)=O
    2 | 0 | 1.4
CNC[C@H]1OCCCC[C@H](C)Oc2ccc(NC(=O)C3CCCCC3)cc2C(=O)N([C@H](C)CO)C[C@@H]1C
    -2 | -4 | 2.3
CC(C)C#Cc1ccc([C@@H]2[C@@H](CO)N(C(=O)c3cccc(F)c3)[C@H]2C#N)cc1
    0 | 1 | -0.7
O=C(Nc1ccccc1)N1C[C@H]2[C@@H](c3ccccc31)[C@@H](CO)N2C(=O)c1ccncc1
    -7 | -2 | -4.7
CN1CCN(C(=O)c2cc3c(c(-c4cccc(-c5ccc(C(=O)N(C)C)cc5)c4)n2)[C@H](CCO)N([S@@](=O)C(C)(C)C)C3)CC1
    8 | 9 | -1.4
CCC(=O)N1[C@H](C(=O)N[C@H](C)c2ccccc2)[C@@H](CO)[C@@H]2Cn3c(cccc3=O)[C@@H]21
    6 | 7 | -0.9
N#C[C@@H]1[C@H](c2ccc(-c3ccc(F)cc3)cc2)[C@@H](CO)N1C(=O)Cc1ccccc1
    -1 | -3 | 2.5
CN(C)C(=O)c1cccc(-c2ccc3n(c2=O)C[C@@H]2N[C@H]3[C@H](C(=O)NC3CCC3)[C@H]2CO)c1
    0 | 6 | -5.7
C[C@H](CO)N1C[C@H](C)[C@@H](CN(C)C(=O)NC2CCCC2)Oc2cc(-c3cncnc3)ccc2S1(=O)=O
    1 | -2 | 3.0
CN1C(=O)c2cc(NC(=O)c3cccc(F)c3)ccc2OC[C@@H]2O[C@@H](CC(=O)N3CCc4ccccc4C3)CC[C@H]21
    2 | 2 | -0.8
O=C(C[C@@H]1CC[C@H](NS(=O)(=O)c2ccccc2F)[C@@H](CO)O1)NCCCN1CCOCC1
    -6 | -6 | -0.3
O=C(Cc1cccnc1)N[C@H]1CC[C@@H](CCNS(=O)(=O)c2ccccc2Cl)O[C@H]1CO
    -1 | 3 | -4.6
COc1ccc(C#Cc2ccc3c(c2)[C@H]2[C@H](CCN2C(=O)Nc2ccc(C(F)(F)F)cc2)[C@@H](CO)N3C)cc1
    -2 | -4 | 1.7
CN1CCCCN2[C@H](C1)[C@@H](c1ccc(/C=C/c3ccccc3)cc1)[C@@H]2CO
    0 | 15 | -15

The list goes on.
compound	DUX4 inh	DUX4 inh difference	DUX4 inh control
COc1ccc(NC(=O)Nc2ccc3c(c2)C(=O)N([C@H](C)CO)C[C@@H](C)[C@@H](CN(C)S(=O)(=O)c2cccs2)OCCCC[C@H](C)O3)cc1	0	0	-0.2
N#C[C@H]1[C@H](c2ccc(-c3ccccc3F)cc2)[C@H](CO)N1C(=O)Cc1ccccc1	4	6	-2.0
CN(C)C(=O)c1cccc(-c2ccccc2[C@@H]2[C@@H](C#N)N(C(=O)C3CCCCC3)[C@H]2CO)c1	6	7	-0.6
C[C@@H]1CN([C@@H](C)CO)C(=O)CCCn2nncc2CO[C@H]1CN(C)C(=O)Nc1ccc(C(F)(F)F)cc1	4	0	4.1
O=C(c1ccccn1)N1CC(=O)N2[C@@H](CO)[C@@H](c3ccc(C#CC4CCCC4)cc3)[C@@H]2C1	-5	-4	-1.3
OC[C@H]1[C@H]2c3ccccc3NC[C@H]2N1Cc1ccccc1Cl	-3	0	-3.5
C[C@H]1CCCCO[C@H](CN(C)CC2CC2)[C@@H](C)CN([C@@H](C)CO)C(=O)c2cc(NC(=O)c3ccccc3)ccc2O1	-2	1	-3.1
COc1ccccc1CNC(=O)C[C@H]1CC[C@H]2[C@@H](COC[C@H](O)CN2C(=O)Nc2ccc(C(F)(F)F)cc2)O1	-1	10	-10
C[C@H]1CN([C@@H](C)CO)C(=O)CCCn2nncc2CO[C@@H]1CN(C)S(=O)(=O)c1ccc(F)cc1	-4	-4	0.4
CCC(=O)N1C[C@@H](C)[C@@H](OC)CN(C)C(=O)c2cc(NC(=O)NC3CCCC3)ccc2OC[C@H]1C	-3	-5	1.9
COc1ccc(CN2CCCCN3[C@H](C2)[C@H](c2ccc(-c4ccc(OC)cc4)cc2)[C@@H]3CO)cc1	10	9	0.0
CCCNC(=O)N1CC2(CCN(C(=O)C3CCOCC3)CC2)c2c([nH]c3cc(OC)ccc23)[C@H]1CO	12	-4	16
C/C=C/c1ccc(C2[C@@H]3CN(S(=O)(=O)c4cn(C)cn4)C[C@H]2N3)cc1 (some centres not stated)	12&9	-4&20	16&-11
Cc1noc(C)c1S(=O)(=O)Nc1ccc2c(c1)C(=O)N([C@H](C)CO)C[C@@H](C)[C@@H](CN(C)S(=O)(=O)c1ccc(F)cc1)OCCCC[C@@H](C)O2	-1	0	-1.0
C[C@H]1CN([C@@H](C)CO)C(=O)Cc2cc(NC(=O)CCCCCC(=O)Nc3ccccc3N)ccc2O[C@@H]1CN(C)S(=O)(=O)c1cccs1	1	1	0.1
CNC(=O)C[C@@H]1CC[C@@H]2[C@@H](COc3ccc(NC(=O)c4ccccc4F)cc3C(=O)N2C)O1	0	0	-0.6
C/C=C/c1ccc([C@H]2[C@H](CO)N(C(=O)c3cnccn3)C23CN(C(=O)C2CC2)C3)cc1	5	3	2.0
CN(C)C(=O)c1cccc(-c2ccc([C@H]3[C@H]4CN(C(=O)Cc5ccccc5)CC(=O)N4[C@H]3CO)cc2)c1	10	2	8.3
COc1ccccc1CNC(=O)C[C@H]1CC[C@H]2[C@@H](COC[C@H](O)CN2Cc2cccc(-c3ccncc3)c2)O1	?	.	.
C[C@H](CO)N1C[C@H](C)[C@@H](CN(C)Cc2ccc(Cl)c(Cl)c2)Oc2c(NC(=O)c3ccc(-c4nccs4)cc3)cccc2C1=O	-2	-4	1.9
CC(=O)N1[C@H](CO)[C@H](c2ccc(-c3ccccc3)cc2)[C@H]1CNC(=O)NC(C)C	1	2	-1.1
N#Cc1ccc(-c2ccc([C@@H]3[C@H](CO)N4C(=O)CNC[C@@H]34)cc2)cc1	9	5	3.4
COC(=O)C[C@@H]1CC[C@@H]2[C@@H](COc3ccc(NC(=O)c4ccc(C(F)(F)F)cc4)cc3C(=O)N2C)O1	3	1	2.0
CCCNC(=O)N1CC2(CN(Cc3cccc(F)c3)C2)c2c([nH]c3cc(OC)ccc23)[C@@H]1CO	?	.	.
COc1ccc2c3c([nH]c2c1)[C@H](CO)N(C(=O)CN(C)C)CC31CN(Cc2ccccc2)C1	-9	19	-28
O=S(=O)(c1ccccc1)N1CCCCN2[C@H](CO)[C@H](c3ccc(C#Cc4cccnc4)cc3)[C@H]2C1	?	.	.
CO[C@@H]1CC[C@H]2CCOc3c(C#N)cccc3C(=O)N(C)CCCC(=O)N(C)C[C@@H]1O2	-1	-3	2.3
O=C(C[C@H]1C[C@H]2c3cc(NC(=O)NC4CCCC4)ccc3O[C@H]2[C@@H](CO)O1)NCC1CC1	12	8	5.0
COc1cc(CN2CC3(CN(S(=O)(=O)c4cccc(F)c4)C3)c3c([nH]c4cc(OC)ccc34)[C@H]2CO)cc(OC)c1	?	.	.

Assay outcomes as filed in PubChem BioAssay.
